Ab BasE inh: BasE siderophore biosynthesis inhibition. inhibition, % (concentration not given with the values). hit rate 0.1% among 84,000. purified BasE, fluorescence polarization binding displacement. AID 485350;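 active = both replicates above 25% with normal brightness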;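 also: 0% = negative plate control signal and 100% = positive plate control signal; stock transfer was 100 nL into about 30 µL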
KSHV LANA nucl: inhibitors of KSHV LANA binding to nucleosomes; z-score (no concentration beside the values); FITC-LANA1-23 / chicken nucleosome fluorescence polarization; stronger effect = lower value; hit rate 0.3% among 51,000;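 active = both repeat wells score below -2 in polarization z-score versus plate sample wells, excluding overly bright wells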;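 also: 100 nL library stock added to about 30 µL; numbers are from one replicate; some results filed as inactive read as strong as hits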
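Material: Purified chicken nucleosomes with FITC-labelled LANA N-terminal peptide (1-23) | Reagent: 50 nM FITC-LANA1-23 probe | Medium: TEN-BT buffer, pH 7.5 | Times: 10–45 min incubation at room temperature | Detection: Fluorescence polarization | Replication: Duplicates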
Starred values were filed as active, the others as inactive; . = no result given; & = joins results of further samples. These rows are one share of the data; count on the stated rates, not on these rows.

SMILES	Ab BasE inh	KSHV LANA nucl
CN1CC(c2nc3ccccc3[nH]2)CC1=O (stereo unspecified)	0.9	-0.38
Cc1cc(OC(=O)c2cccs2)cc(OC(=O)c2cccs2)c1	-0.7	0.14
O=C(CSC1=Nc2ccccc2CS1)c1ccc[nH]1	-3.9	.
O=C(O)CCCCCN1C(=O)C2C3C=CC(C3)C2C1=O (stereo unspecified)	3.2	.
CC(=O)N(c1ccccc1)c1nc(COC(=O)C2CCC2)cs1	1.9	.
NNC(=S)Nc1ccc2c(c1)OCO2	2.6	-0.23
O=C1/C(=C/c2ccc3ccccc3c2)COc2ccccc21	1.8	.
Cc1ccc(C2C(C#N)=C(SCC(=O)N3CCN(Cc4ccccc4)CC3)NC3=C2C(=O)CCC3)cc1 (stereo unspecified)	2.3	-0.11
Cc1cc(N/C=C(\C#N)S(=O)(=O)c2ccc(Cl)cc2)nc(C)n1	-3.0	1.9
CCC1CN(C(=O)NCc2ccccc2)c2ccccc2O1 (stereo unspecified)	-1.5	0.25
Cc1cc(C)c(C)c(S(=O)(=O)NC(C)C)c1C	2.4	-0.098
CCn1nnc2cc(C(=O)OCC(=O)N(C)Cc3cccc(F)c3)ccc21	0.8	.
COCCN1Cc2cccc(C(=O)NCc3cccs3)c2C1=O	0.2	-0.9
O=C(CSc1nc2ccccc2o1)N=Nc1c(O)[nH]c2ccccc12	-0.2	0.61
O=C(OCc1ccco1)c1sc2ccccc2c1Cl	-2.5	2.5
CCCCOCC1CC2(CC(C)(c3csc(N)n3)OC2=O)C(=O)O1 (stereo unspecified)	-0.7	-0.29
CNC(=S)N/N=C(\C)c1ccc(N2CCCCCC2)cc1	-0.1	.
O=C(NNc1ccc(OC(F)(F)F)cc1)C1CCCCC1	2.3	0.99
Cc1cc(C)c(C)c(OCCCSC#N)c1	-0.1	-0.27
CSC1=N/C(=C\c2ccc(Cl)cc2)C(=O)N1CCOc1ccc(Cl)cc1	-2.4	.
CCOc1ccc(S(=O)(=O)N(C)c2ccc(OCC(=O)N(C)C3CCN(C)CC3)cc2)cc1	-2.5	.
CS(=O)(=O)c1ccc(NC(=O)c2ccccc2-n2cnnn2)cc1	-0.6	.
COc1cc(/C=C2/N=C(c3ccccc3)N(C)C2=O)cc(OC)c1OC	-0.2	.
O=C(COC(=O)C12CC3CC(CC(O)(C3)C1)C2)Nc1cccc2nsnc12	1.1	.
COC(CNC(=O)c1ccc(N2CCCC2=O)cc1)OC	0.5	0.93
COC(=O)CSc1nnc(CNc2ccc(Cl)cc2)n1Cc1ccccc1	0.0	0.38
Cc1ccc(C(=O)Nc2cnc3ccccn3c2=O)cc1	1.9	-0.26
O=C1COc2ccc(C(=O)COC(=O)c3cccs3)cc2N1	0.9	.
COC1CCCCC1Nc1ccccc1 (stereo unspecified)	4.7	0.59
Cc1cc(C)n(CCOc2ccc(Br)cc2)n1	0.5	-0.79
c1ccc(OCCn2c(CN3CCCCC3)nc3ccccc32)cc1	-4.4	0.6
O=C(COc1ccccc1)n1nc(-c2ccccc2)nc1NCc1cccs1	1.1	-0.055
Cc1ccccc1N1CCN(C2=NC(=O)/C(=C\c3cccs3)S2)CC1	1.1	0.056
CCc1cc2c(=O)c(-c3nc4ccccc4s3)c(C(F)(F)F)oc2cc1O	1.0	.
O=C(O)c1ccccc1Cc1nc2c(oc3ccccc32)c(=O)[nH]1	-1.3	.
OCCN(Cc1ccccc1)Cc1ccccc1O	0.3	-0.8
O=C(OCC(=O)N1CCCc2ccccc21)c1ccccc1O	-0.1	.
CN(C)CCCNS(=O)(=O)c1cc(Cl)c(Cl)cc1Cl	.	0.0065
Cc1ccc(CN(Cc2ccco2)C(=S)NCC(=O)O)cc1	-0.1	0.61
OC(Cc1cccnc1)(c1ccccc1)c1ccccc1	-0.5	.
COc1ccc(-c2noc(COC(=O)/C(=C/c3ccccc3OC)c3ccccc3)n2)c(OC)c1	0.2	.
CCOC(=O)c1ccc(NC(=O)CCC(=O)N2CC(C)Oc3ccc(C)cc32)cc1 (stereo unspecified)	0.4	0.72
O=C(O)COCC(=O)N1CC(=O)Nc2ccccc21	1.1	-0.93
O=C(CO)n1c2ccccc2c2ccccc21	2.3	-1.1
CS(=O)(=O)c1ccc(-c2csc(-c3cccs3)n2)cc1	1.4	.
COC(=O)c1cc(Nc2ncnc3c2nc2n3CCCCC2)cc(C(=O)OC)c1	-1.8	0.83
CCN(C(=O)c1c(N)cnn1C)c1ccccc1	2.4	-0.076
O=C(NCN1C(=O)C2C3C=CC(C3)C2C1=O)Nc1cccnc1 (stereo unspecified)	0.8	.
O=C(Nc1ccc2nc(N3CCOCC3)sc2c1)c1cncn1-c1ccccc1	0.3	.
CCOC(=O)N1CCN(C(=O)COC(=O)c2cccc(S(C)(=O)=O)c2)CC1	0.1	.
O=C(NCc1ccccc1)c1cc[n+]([O-])cc1	-0.8	-0.002
N=c1c2c(F)cccc2ncn1NC(=O)c1ccncc1	1.7	0.082
O=S1(=O)N=C(N(Cc2ccco2)c2ccc(O)cc2)c2ccccc21	1.1	-0.17
OCc1ccnc(Cl)c1	9.4	0.015
N#CC(C#N)=Cc1ccc(/C=C(\C#N)S(=O)(=O)c2ccccn2)cc1	-0.3	2.3
CN(C)c1ccc(/C=N/NC(=O)CNc2ccc(Br)cc2)cc1	-1.9	0.14
Cn1c(C(=O)O)c(CC(=O)O)c2ccccc21	0.4	-0.81
OC(COc1ccc(F)cc1)(c1ccc(Cl)cc1)c1ccc(Cl)cc1	1.6	.
Cc1ccc(NC(=O)CCn2nnc(-c3ccc(OCc4ccccc4F)cc3)n2)cc1C	-0.7	.
O=C(O)C(c1cccs1)c1cccs1	-0.5	-0.41
Following part:
SMILES	Ab BasE inh	KSHV LANA nucl
N#CCCn1ccc2ccccc21	-1.2	.
Cc1ccc(/C=C2\CCCc3ccccc3C2=O)o1	-2.2	-0.2
CC(C)n1c(CN(C)Cc2ccccc2)nc2ccccc21	0.8	-0.5
O=C(NCc1cccnc1)/C(=C\c1cccc(Oc2ccccc2)c1)S(=O)(=O)c1ccccc1	1.9	.
O=C(Nc1ccc(Cl)cc1)c1ncoc1-c1cccs1	0.0	0.41
CCOC(=O)C1=C(C)NC2=C(C(=O)CCC2)C1c1ccccc1 (stereo unspecified)	2.5	0.17
O=C1C2C3C=CC(C3)C2C(=O)N1c1cccc(N2C(=O)C3C4C=CC(C4)C3C2=O)c1 (stereo unspecified)	2.0	.
COC(=O)CCCNc1ccc(C(F)(F)F)cc1N	.	-0.28
CCCCn1nnc2sc(-c3ccccc3)cc2c1=O	-6.6	1.2
CC1=C(C(=O)NCCC(C)C)C2(CCN(S(=O)(=O)c3cccs3)CC2)OC1=O	0.0	.
O=C(CSc1nc2ccccc2c(=O)n1C1CCCC1)Nc1cccnc1Cl	3.5	.
O=c1[nH]c(CSc2ccccn2)nc2ccsc12	6.6	.
CC(C)(C)c1cc(O)c(C(C)(C)C)cc1O	2.8	0.58
O=C1c2ccccc2S(=O)(=O)c2cc(C(=O)N3CCN(c4ccccc4)CC3)ccc21	-2.5	.
N#Cc1c(-c2ccccc2)nc2n(c1=O)CCCS2	0.7	-2.1
COc1cccc(CN(Cc2ccco2)S(=O)(=O)c2ccccc2)c1	0.0	.
CCOC(=O)c1cc(-c2ccc(S(=O)(=O)N3CCCCC3C)s2)on1 (stereo unspecified)	1.4	-0.36
O=C(CCCC1CCCCC1)Nc1ccncc1	0.3	.
CCCn1c(C)cc(C(=O)CSc2nc(O)cc(=O)n2C2CCCC2)c1C	-0.4	.
O=S(=O)(c1ccc(F)cc1)N1C=CC(C(F)(F)F)=NCC1	2.0	.
O=C(Nc1ccc2c(c1)OCCO2)c1cccc(-n2cnnc2)c1	1.3	-0.64
CC1(C)CC2(CCO1)NNC(=S)NN2	-2.4	0.053
COc1ccccc1/C=C/C(=O)N1CCC(C(N)=O)CC1	1.0	-1.6
Cc1ccc2ccccc2c1COC(=O)c1nonc1N	0.7	-0.52
Cc1oc2ncn(C)c(=O)c2c1C(=O)OCc1ccc(C#N)cc1	0.2	.
COc1ccccc1C1C(C(=O)Nc2ccccc2F)=C(C)NC2=C1C(=O)CCC2 (stereo unspecified)	1.6	.
Cc1cc(NC(=O)c2cccnc2)ccc1NC(=O)c1ccco1	-0.5	-1.6
Cc1nc(-c2ccc3ccccc3n2)cn1Cc1ccc(F)cc1	.	0.12
COc1cccc(-c2nnc(SCC(=O)N3CCCCC3C)o2)c1 (stereo unspecified)	-0.6	0.16
O=C(NC1CCN(C(=O)NC2CCCCC2)CC1)c1ccc(F)cc1	0.2	0.13
O=S(=O)(Nc1ccc(Oc2ccc(Cl)cc2C2CCCCC2)nc1)c1cccc2nonc12	-1.7	2.3
CC(C)(C)n1cnc2cc(NS(=O)(=O)c3ccccc3)ccc21	-0.1	-0.74
COc1cc(/C=C/C(=O)OCC(=O)Nc2ccc(NC(C)=O)cc2)ccc1O	1.5	.
Nc1ccc(C(=O)NCc2ccccc2)cc1	3.1	0.58
O=C(O)CNC(=S)N(Cc1cccs1)C1CCCC1	-2.7	2.3
CC1CCN(S(=O)(=O)N2CCC(C(=O)NCCC3=CCCCC3)CC2)CC1	0.9	-0.24
C/C(N)=C(/C#N)C(=O)CSc1nnc(N)s1	0.3	.
NC(=O)c1ccccc1OCC(=O)N1CCCC1c1ccc2c(c1)OCCCO2 (stereo unspecified)	2.2	.
O=C1c2ccccc2C(=O)N1CCSc1nnc(Cc2cccs2)n1C1CCCCC1	0.3	.
C=CCN(Cc1ccc(Cl)s1)c1ncnc2sccc12	-0.9	.
Cn1nc(NC(=O)c2ccc(CSc3ccc(Cl)cc3)o2)c2c(F)cccc21	-2.5	2.1
O=C(O)CN(CCN(CC(=O)O)CC(=O)O)CC(=O)O	-1.1	0.35&0.06
CCOC(=O)c1nc(C)sc1-c1ccnn1S(=O)(=O)c1cccc(Cl)c1	1.4	-0.35
CCc1noc(C)c1C(=O)Nc1ccc(N(C)C)cc1	-1.1	.
NC1=NC2=C(CCCC2)C2(CCCCC2)S1	-0.1	0.21
O=C(C1CC(=O)N(C2CCCCC2)C1)N1CCOCC1 (stereo unspecified)	0.7	-0.14
CCC(CC)NC(=O)c1ccc(OCc2c(C)noc2C)c(OC)c1	-1.4	.
CCN(CC)S(=O)(=O)c1cc(-c2cc(C(=O)NC3CC3)no2)ccc1OC	-2.9	0.54
CCCc1ncc(C(=O)c2ccc(OC)cc2)n1C	-0.3	0.42
Cc1nc(C(F)(F)F)nc(Sc2ccccc2Cl)c1Oc1ccccc1	1.1	.
N#C/C(=C\Nc1ccc2c(c1)C(=O)OC2)C(=O)c1ccccc1	4.6	-0.45
CC(C#N)OC(=O)/C=C/c1ccc2ccccc2n1 (stereo unspecified)	1.8	.
O=C(NCC(=O)N1CCSc2ccccc21)c1ccccc1F	2.0	.
N=c1c(C(=O)NC2CCCCC2)cc2c(=O)n3ccccc3nc2n1Cc1cccnc1	3.8	.
Cc1ccc(N(CC(=O)NC2CCCC2)C(=O)c2ccc(N3CCCC3)nc2)cc1	-1.2	0.25
CC(O)/C=C/c1ccncc1 (stereo unspecified)	8.5	-0.9
COc1cccc(NC(=O)c2ccnc(N3CCC(C(=O)NCCc4ccccc4)CC3)c2)c1	-0.8	-0.73
FC(F)(F)c1cccnc1NCCNc1ncnc2scc(-c3ccccc3)c12	0.6	.
O=C(CSc1nnnn1-c1ccccc1)N/N=C/c1ccc(Cl)cc1Cl	0.1	0.31
CC1(C)C2CCC(C2)C1(C)NC(=O)CNCc1ccco1 (stereo unspecified)	1.1	-1
Next section
SMILES	Ab BasE inh	KSHV LANA nucl
Clc1ccc(CCc2ccc(Cl)cc2)cc1	0.4	.
COc1ccc(OCC(=O)Nc2cc3c(cc2C(=O)O)OCCCO3)cc1	4.1	.
CCC(C)N1CCC(N)=NC1=O (stereo unspecified)	-3.1	.
CN(Cc1cccc(O)c1)C1CCCCC1	1.6	-0.69
CC1=C(C)CS(=O)N(S(=O)(=O)c2ccc(C)cc2)C1 (stereo unspecified)	3.0	0.074
O=C(Nc1ccc(-n2cnnn2)cc1)c1cccc(S(=O)(=O)N2CCc3ccccc3C2)c1	-0.5	.
COc1ccc(-c2noc(CNS(=O)(=O)c3ccccc3)n2)cc1	-0.7	-0.44
CC1CC(C)CN(C(=O)CCCc2c[nH]c3ccccc23)C1 (stereo unspecified)	0.5	0.027
Cc1ccc(C)c(S(=O)(=O)N/N=C/c2ccc3c(c2)OCCO3)c1	0.3	.
Cc1sc2nc3n(c(=O)c2c1C)N=C(c1ccc(F)cc1)CS3	-1.7	.
Cc1cc(Sc2nnc(/N=C/N(C)C)s2)c2ccccc2n1	1.0	.
